# High-throughput results as filed in PubChem BioAssay.
# TRPML1 agonist = agonists of human TRPML1 channel; activation, % (concentration not given with the values); AID 624414; actives 0.12% (n = 410,000); Q9GZU1; TRPML1-expressing cells, Ca2+ dye fluorescence, FDSS; host cell line not named in the record; reference of the full effect not given here; in the data active = activation above about 50%; inconclusive = about 30% to 50%; inactive = below about 30%; further: 0% is about no effect; the text of the record puts the active cut at 80%
#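 Tet-induced TRPML1-DL cells, 1,500 per well, cultured overnight, were loaded with a no-wash Ca2+ dye for 45–90 min. Calcium fluorescence was recorded on the FDSS for 110 s after compound addition, before the EC80 agonist (4 uM 54-4) was added.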
# TRPV1 potentiator = potentiators of human vanilloid receptor 1 (TRPV1) | potentiation, % at 8.33 µM | TRPV1-expressing cells, Fluo-8 calcium influx, capsaicin EC20 potentiation; host cell line not named in the record; control for the full effect not named in the record | actives 0.02% (n = 320,000) | AID 540277; active means potentiation above 80%; inconclusive means 30% to 80%; inactive means below 30%; further: 0% is about no effect
# Target sequence (Q8NER1 whole entry, looked up): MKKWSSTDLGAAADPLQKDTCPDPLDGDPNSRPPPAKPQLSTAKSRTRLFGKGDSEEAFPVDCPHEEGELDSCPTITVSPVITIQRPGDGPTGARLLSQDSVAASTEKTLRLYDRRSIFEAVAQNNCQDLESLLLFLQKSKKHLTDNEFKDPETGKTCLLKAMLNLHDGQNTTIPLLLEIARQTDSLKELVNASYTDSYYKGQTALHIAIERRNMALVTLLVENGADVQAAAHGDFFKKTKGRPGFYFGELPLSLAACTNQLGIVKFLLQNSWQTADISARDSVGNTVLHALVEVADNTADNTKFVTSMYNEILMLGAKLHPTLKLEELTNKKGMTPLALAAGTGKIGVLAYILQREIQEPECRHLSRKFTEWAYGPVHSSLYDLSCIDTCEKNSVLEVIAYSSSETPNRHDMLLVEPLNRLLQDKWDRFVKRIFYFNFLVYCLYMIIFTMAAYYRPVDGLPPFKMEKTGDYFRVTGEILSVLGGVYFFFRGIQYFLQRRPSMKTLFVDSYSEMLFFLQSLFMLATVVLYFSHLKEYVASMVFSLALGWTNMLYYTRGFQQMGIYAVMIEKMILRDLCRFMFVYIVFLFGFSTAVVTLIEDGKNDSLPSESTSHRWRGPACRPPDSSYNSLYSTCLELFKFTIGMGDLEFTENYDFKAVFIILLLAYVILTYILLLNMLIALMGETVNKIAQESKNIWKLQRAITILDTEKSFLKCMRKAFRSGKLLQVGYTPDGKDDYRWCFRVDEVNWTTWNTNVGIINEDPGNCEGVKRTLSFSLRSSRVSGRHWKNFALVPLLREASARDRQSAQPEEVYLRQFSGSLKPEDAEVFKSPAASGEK
#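 Fluo-8 calcium influx in TRPV1-expressing cells, kinetic read (ex 480/em 520 nm). Compound added and read 3 min for agonist activity, followed by capsaicin at EC20 final and 2 min further read for enhancement.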
# CtBP-E1A blk = blocks the CtBP interaction with E1A; AID 651724; activity change, % (concentration not given with the values); AlphaScreen GST-E1A/His-CtBP binding, 1536-well; stronger effect = lower value; control for the full effect not named in the record; actives 0.49% (n = 340,000); in the data active means activity change below about -65%; inconclusive means about -30% to -65%; inactive means above about -30%; further: on the % scale 0 is the no-effect control and ±100 the full control effect
#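 In 5 uL wells, 23 nL compound meets equimolar GST-E1A and His-CtBP (5X stock 125 nM each) for 2 h, 37 °C. Beads (5X, 50 ug/mL) then 1 h, 37 °C, dark.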
# Six1-Eya2 blk = inhibitors of human Six1/Eya2 interaction; AlphaScreen GST-Six1/His-Eya2 binding, biochemical; stronger effect = lower value; control for the full effect not named in the record; activity change, % (test concentration not listed); Q15475+O00167; AID 651725; actives 0.56% (n = 360,000); in the data active = activity change below about -65%; inconclusive = about -30% to -65%; inactive = above about -30%; further: on the % scale 0 is the no-effect control and ±100 the full control effect; compound concentration not given in the record
#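 Six1/Eya2 binding was read as AlphaScreen signal after compounds were pinned into GST-Six1 plus His-tagged Eya2 (5X stock 250/500 nM) in pH 8.0 Tris/NaCl/TCEP buffer, beads added, then incubated 1 h, 37 C, dark.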
# TRPML1 blocker = inhibitors of human TRPML1 channel | actives 0.02% (n = 390,000) | AID 624415 | TRPML1-inducible cells, Ca2+ dye fluorescence, FDSS; stronger effect = lower value; inhibition of EC80 agonist-evoked calcium signal | activity change, negative = inhibition, % (test concentration not listed); in the data active means activity change below about -50%; inconclusive means about -30% to -50%; inactive means above about -30%;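 further: stimulus is agonist 54-4 at its EC80 concentration; on the % scale 0 is the no-effect control and ±100 the full control effect; compound concentration not given in the record; the text of the record puts the active cut at -80%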
#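 Tet-induced TRPML1-DL cells loaded with Ca8 no-wash calcium dye were read kinetically on FDSS. Compound addition was followed by EC80 agonist 54-4 (4 uM final); inhibition was read over 110 s.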
# D2 PAM = human D2 receptor positive allosteric modulation; DiscoveRx D2 beta-arrestin cells, luminescence, 90 min; 100% = 57 uM dopamine signal; potentiation, % (concentration not given with the values); actives 0.23% (n = 360,000); active = potentiation of 50% or more; inconclusive = 30% to 50%; inactive = 30% or less;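 further: compound concentration not given in the record; tested on top of an EC20 dose of dopamine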
#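 PathHunter D2 cells, attached overnight at 37 deg C, received compound in DMSO plus dopamine at EC20 (50 nM final) for 90 min at 37 deg C. Beta-arrestin recruitment was read as luminescence after 1 h with detection reagent at ambient temperature.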
# Numbers without * were called inactive; ? = inconclusive; . = no result given; & = joins results of further samples. No enrichment for hits; about 0.95% have a hit in one of these screens.
SMILES,TRPML1 agonist,TRPV1 potentiator,CtBP-E1A blk,Six1-Eya2 blk,TRPML1 blocker,D2 PAM
O=C1NCCOC(=O)[C@H](Cc2ccc(F)cc2)CC/C=C/C[C@H]1CC(=O)N(CCO)Cc1ccccc1,-0.5,.,-1,-1,-1,-16
CCCCc1c(C)nc2c(OC)cccc2c1SCC(=O)O,-0.4&-0.6,5,-3,-9,19,-9
OC(c1nc2ccccc2[nH]1)C(O)c1nc2ccccc2[nH]1 (stereo not given),2.4,-12,-1,-1,72,-5
CC(C)Oc1ccc(C(=O)Nc2ccc(N3CCN(C(=O)c4ccco4)CC3)cc2)cc1,0.1,4,-2,-8,20,-3
Cc1nnc(SCC(=O)Nn2cnnc2)s1,2.3,-7,1,0,-7,-8
Cc1ccc(C(=O)OCC(=O)Nc2c(C)n(C)n(-c3ccccc3)c2=O)cc1[N+](=O)[O-],1.8,9,6,-6,7,-6
COc1ccc(NC(=O)CCc2nnc3ccc(N4CCN(c5cccc(OC)c5)CC4)nn23)cc1,0.5,-4,.,-8,-3,0
CCCSc1nnc(C(C)C)n1N,-0.6,2,12,2,2,-4
CCC(=O)Nc1nonc1-c1nc2ccccc2n1Cc1ccccc1,7.6,-4,-13,12,-5,-4
CN1C(=O)c2ccccc2C(C(=O)NCCCN2CCCC2=O)C1c1c[nH]c2ccccc12 (stereo not given),0.7,-5,2,9,-17,2
O=C(Cc1cccs1)N/N=C/C(Br)=C/c1ccccc1,0.8,8,?,-3,36,-7
Cc1ccc2nc(C)cc(C(=O)OCC(=O)c3ccc(Cl)c([N+](=O)[O-])c3)c2c1,1.0,5,8,-7,52,-44
C=CCSc1nnc(-c2cccnc2)o1,-0.7,15,5,7,5,-3
COc1ccc([C@H]2N[C@]3(CCCN(Cc4ccc(C(F)(F)F)cc4)C3=O)[C@H]3C(=O)N(Cc4ccccc4)C(=O)[C@@H]23)cc1,0.1,.,0,-4,0,1
CCNS(=O)(=O)c1ccc(CCC(=O)Nc2ccccc2)cc1,0.4,8,0,-3,-11,-5
CC(=O)N1CCN(C(=O)CNC(=O)c2cccs2)CC1,0.2,19,0,9,2,-2
COC(=O)CSc1nc2ccc(C)cc2[nH]1,1.6,2,-5,7,6,-7
CCCCCn1c(=O)[nH]c2cc(C(=O)NC3CCN(Cc4ccccc4)CC3)ccc2c1=O,1.3,.,4,-2,28,-7
COc1ccc(N2CCN(CCCNC(=O)c3ccc(CS(=O)(=O)c4ccc(OC)cc4)o3)CC2)cc1,-0.2,-2,-7,-10,-2,-41
C=CCn1c(=O)c2c(nc3n2CC(C)CN3c2cccc(OC)c2)n(C)c1=O (stereo not given),-0.2,-16,-2,-5,-11,-14
O=c1[nH]c(C2CCN(S(=O)(=O)c3ccccc3)CC2)nc2c1nnn2Cc1ccccc1,1.4,4,-29,-9,-13,-2
COc1cccc(CNC23CC4CC(CC(C4)C2)C3)c1OCc1ccccc1,-0.5,-10,.,-3,13,-26
O=C(NCCS(=O)(=O)c1ccc(Br)cc1)c1ccc(Cl)cc1Cl,-0.4,-1,0,1,-11,-25
CC(NC(=O)COc1ccc(/C=N/NC(=O)C(=O)Nc2ccccc2Br)cc1)c1ccccc1 (stereo not given),0.1,2,2,3,-1,-9
COc1ccc(CNC(=O)CC2C[C@H](C(=O)N3CCOCC3)[C@@]3(C)c4[nH]c5ccccc5c4CCN3C2=O)cc1OC (stereo not given in full),-0.4,.,2,-2,23,-8
O=C(C1CCN(S(=O)(=O)c2ccccc2)CC1)N1CCC1,-0.5,4,5,0,-7,-10
Cc1nn(C)c(C(=O)NNC(=S)NCc2ccccc2)c1Cl,0.4,16,-2,2,0,0
O=S1(=O)CC(N2CCN(Cc3ccccc3F)CC2)CN1Cc1cn(Cc2ccc(C(F)(F)F)cc2)nn1 (stereo not given),0.0,.,-16,-8,.,.
CCCCOc1ccccc1C1NC(=O)NC(C)=C1C(=O)OCCOC (stereo not given),0.4,.,10,1,0,-8
COc1ccc(NC(=O)c2cc(-c3ccccc3)oc2C)cc1,3.6,-10,-15,-2,18,-10
CCOC(=O)CNC(=O)C(NC(=O)C1CCC(C)CC1)C(C)CC (stereo not given),2.1,-7,-2,5,10,3
O=C(CSc1nc2cc3ccccc3cc2[nH]1)Nc1ccc(F)cc1,-0.6&4.2,8,3,-2,-12&2,-15
O=S(=O)(c1ccccc1Cl)N1CCCC1c1nc(-c2ccc(Cl)cc2)no1 (stereo not given),4.5,-5,12,9,81,1
COc1ccc(-c2nc(C)c(C(C)=O)n2O)cc1,-0.1,4,-2,3,-14,-15
COc1ccc(-n2cc(C(=O)c3cc(Cl)ccc3O)cc(C#N)c2=O)cc1,-0.2,-8,-3,-4,-14,11
COc1ccc(N(CC(=O)N2CCCCCC2)S(=O)(=O)c2ccc(OC)c(OC)c2)cc1,-0.6,-1,4,-2,-20,0
CCOc1ccc2nc(N3CCC(C(=O)NC4CCCCC4)CC3)sc2c1,0.8,-10,.,2,-26,-3
COCCNC(=O)Cn1ccc2cc(S(=O)(=O)N3CCCCCC3)ccc21,0.4&1.1,-5,.,5,-4&10,-6
C=CCN(CC(=O)NCc1ccc(F)cc1)C(=O)c1csnn1,0.8,16,1,-2,-3,0
Cc1cc(NC(=O)CNCC(c2ccccc2)N(C)C)c([N+](=O)[O-])cc1C (stereo not given),0.3,-10,.,-5,-1,-25
O=C(c1ccccc1)N(Cc1ccccc1)Cc1ccccc1,2.3,-15,8,11,22,-3
CCCc1cc(C(=O)Nc2cccc3ccccc23)n(C)n1,1.4,-4,4,-7,-8,-8
CC1CCC2(CC1)NC(=S)N(c1ccccc1)N2 (stereo not given),0.7,-7,9,7,-16,-23
CC(O)(c1ccccc1)C(c1ccccc1)C1CCCCN1 (stereo not given),1.3,10,1,3,14,-5
Cc1ccc2c(c1)C1CN(C)CCC1N2C(=O)c1cccc(S(=O)(=O)N2CC(C)CC(C)C2)c1 (stereo not given),0.5,-1,-5,0,5,-13
O=C(CCC(=O)N(CC(=O)NC1CCCC1)c1ccccc1F)Nc1nccs1,0.5,5,1,2,0,-5
COc1ccccc1C(=O)NCC(c1cccs1)N1CCc2ccccc21 (stereo not given),-0.3,-14,-1,?,-9,16
CC(=O)N[C@@H](Cc1c[nH]c2ccccc12)C(=O)OCC(=O)Nc1ccc2c(c1)OCO2,-0.4,.,23,2,-1,-2
CC(=O)NC(Cc1c[nH]c2ccccc12)C(=O)N1CCc2ccccc2C1 (stereo not given),0.4,.,0,3,9,-27
OC(CNC1CCCc2ccccc21)COc1c(Cl)cccc1Cl (stereo not given),-0.4,2,5,6,1,-21

# Continuation:
SMILES,TRPML1 agonist,TRPV1 potentiator,CtBP-E1A blk,Six1-Eya2 blk,TRPML1 blocker,D2 PAM
CN(/N=C/c1ccc(C(C)(C)C)cc1)C1=NCCN1,-0.5,12,3,3,57,-7
CC(C)(C)S(=O)N1Cc2cc(CO)cc(-c3ccccc3)c2[C@@H]1CCO (stereo not given in full),-0.1,.,26,19,-13,.
O=C(NCc1ccco1)/C(=C/c1ccccc1)NC(=O)c1ccco1,1.0,-13,0,7,11,0
Cc1cc(Nc2ncc(Cl)cc2Cl)n(-c2ccccc2C)n1,3.2,4,17,6,5,-14
O=C(/C=C/Nc1ccccc1)c1ccc(Cl)cc1Cl,.,?,.,0,.,-21
Cc1noc(NS(=O)(=O)c2ccc(NC(=O)CSc3nc4c(cc3C#N)CCCCC4)cc2)c1C,0.8,8,-20,-14,-14,-3
Cc1[nH]c(=O)[nH]c(=O)c1S(=O)(=O)N(CC(C)C)CC(C)C,0.8,0,15,-15,-17,4
Cc1ccccc1C(=O)N1CCC(C(=O)N(C)CC(=O)Nc2cccc(F)c2)CC1,-0.4,-8,7,-1,0,15
Cc1ccc(/C=N/Nc2cn[nH]c(=O)n2)o1,-0.1,0,-68*,?,7,-6
Cc1oc(-c2ccccc2)nc1CS(=O)CC(=O)NC1CCCCCC1 (stereo not given),-0.3,-11,2,5,3,-16
COc1ccc(N2CCN(C(=O)CCC(=O)N3CC(C)Oc4ccccc43)CC2)cc1 (stereo not given),0.2,8,3,-8,21,-5
COc1cc2c(c(OC)c1OC)C(c1ccccc1C)CC(=O)O2 (stereo not given),-1.1,.,0,3,-10,-4
S=C(NCc1ccc(Cl)cc1)NC1CCN(Cc2ccccc2)CC1,2.8,-12,-5,-22,-13,-20
O=C(C1CCC(N2C(=O)C3CC=CCC3C2=O)CC1)N1CCCCC1 (stereo not given),0.2,5,-5,4,-8,-2
Cc1ccc(CSCc2ccc(C(=O)O)o2)cc1,1.0,-4,.,11,64,-9
CCOC(=O)N1CCN(S(=O)(=O)c2ccc(Br)cc2)CC1,1.3,-4,14,2,11,-1
Cc1cc(Sc2nc(NC(C)(C)C)nc(N3CCOCC3)n2)nc(Cl)n1,0.1,5,8,4,-13,-1
CC1CCCN(c2c([N+](=O)[O-])c(=O)oc3ccccc23)C1 (stereo not given),0.5,0,-2,-1,-11,-8
O=C(/C(=C/O)N=Nc1ccccc1)c1cccs1,-0.9,14,.,-20,7,-7
Cc1nn(-c2ccccc2)c(C)c1C(=O)OCC(=O)NC12CC3CC(CC(C3)C1)C2,2.2,-4,4,0,10,-2

# Fetched one by one from the entries so far:
SMILES,TRPML1 agonist,TRPV1 potentiator,CtBP-E1A blk,Six1-Eya2 blk,TRPML1 blocker,D2 PAM
OC(c1nc2ccccc2[nH]1)C(O)c1nc2ccccc2[nH]1 (stereo not given),2.4,-12,-1,-1,72,-5
CC(=O)N[C@@H](Cc1c[nH]c2ccccc12)C(=O)OCC(=O)Nc1ccc2c(c1)OCO2,-0.4,.,23,2,-1,-2
Cc1ccc(CSCc2ccc(C(=O)O)o2)cc1,1.0,-4,.,11,64,-9

# Other compounds.
SMILES,TRPML1 agonist,TRPV1 potentiator,CtBP-E1A blk,Six1-Eya2 blk,TRPML1 blocker,D2 PAM
Cn1nnc(NC(=S)NC(=O)c2cccs2)n1,0.5,5,-3,0,-1,-53
CC(C)(CNC(=O)c1ccc(S(=O)(=O)N2CCCC2)cc1)N1CCOCC1,-0.5,1,4,3,-8,-18
c1ccc(-c2nnsc2-c2ccccc2)cc1,.,7,9,22,.,2
COC(=O)C(NC(=O)CCc1c(C)nc2c(c(C)nn2-c2ccccc2)c1C)C(C)C (stereo not given),1.7,18,-11,-16,9,-5
CC1(C)Cc2c(cnn2-c2cccc(F)c2)C(NC(=O)Cn2cccn2)C1 (stereo not given),1.3,-20,21,-5,-6,-8
COc1ccc(CCNS(=O)(=O)CCNC(=O)c2ccccc2)cc1,0.9,12,0,7,-6,-17

# In another format: results already given.
SMILES	TRPML1 agonist	TRPV1 potentiator	CtBP-E1A blk	Six1-Eya2 blk	TRPML1 blocker	D2 PAM
CC1(C)Cc2c(cnn2-c2cccc(F)c2)C(NC(=O)Cn2cccn2)C1 (stereo not given)	1.3	-20	21	-5	-6	-8
COc1ccc(CCNS(=O)(=O)CCNC(=O)c2ccccc2)cc1	0.9	12	0	7	-6	-17
Cn1nnc(NC(=S)NC(=O)c2cccs2)n1	0.5	5	-3	0	-1	-53
COC(=O)C(NC(=O)CCc1c(C)nc2c(c(C)nn2-c2ccccc2)c1C)C(C)C (stereo not given)	1.7	18	-11	-16	9	-5
